Insulin prom inh = TRM-6 insulin promoter activity inhibition; TRM-6 cells (human fetal islet line), insulin promoter-eGFP reporter, imaging; reporter expression induced with tamoxifen; inhibition, % at 2 µM; 130,000 tested, 0.9% active; AID 1273;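 active = inhibition above the mean plus 3 SD, with well images judged a real hit on visual review, cut at about 60% in these data, passing the limit was not always enough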
PKD1 inh = PKD1 (human) kinase inhibition | PKD1 kinase fluorescence polarization assay | 200,000 tested, 0.056% active | Q15139 | AID 797 | inhibition, %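 (about 10 µM by stock and volumes)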;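 active = inhibition of 50% or more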;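 also: controls were vehicle for no effect and a reference inhibitor for full effect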
Target sequence (Q15139 whole entry, looked up): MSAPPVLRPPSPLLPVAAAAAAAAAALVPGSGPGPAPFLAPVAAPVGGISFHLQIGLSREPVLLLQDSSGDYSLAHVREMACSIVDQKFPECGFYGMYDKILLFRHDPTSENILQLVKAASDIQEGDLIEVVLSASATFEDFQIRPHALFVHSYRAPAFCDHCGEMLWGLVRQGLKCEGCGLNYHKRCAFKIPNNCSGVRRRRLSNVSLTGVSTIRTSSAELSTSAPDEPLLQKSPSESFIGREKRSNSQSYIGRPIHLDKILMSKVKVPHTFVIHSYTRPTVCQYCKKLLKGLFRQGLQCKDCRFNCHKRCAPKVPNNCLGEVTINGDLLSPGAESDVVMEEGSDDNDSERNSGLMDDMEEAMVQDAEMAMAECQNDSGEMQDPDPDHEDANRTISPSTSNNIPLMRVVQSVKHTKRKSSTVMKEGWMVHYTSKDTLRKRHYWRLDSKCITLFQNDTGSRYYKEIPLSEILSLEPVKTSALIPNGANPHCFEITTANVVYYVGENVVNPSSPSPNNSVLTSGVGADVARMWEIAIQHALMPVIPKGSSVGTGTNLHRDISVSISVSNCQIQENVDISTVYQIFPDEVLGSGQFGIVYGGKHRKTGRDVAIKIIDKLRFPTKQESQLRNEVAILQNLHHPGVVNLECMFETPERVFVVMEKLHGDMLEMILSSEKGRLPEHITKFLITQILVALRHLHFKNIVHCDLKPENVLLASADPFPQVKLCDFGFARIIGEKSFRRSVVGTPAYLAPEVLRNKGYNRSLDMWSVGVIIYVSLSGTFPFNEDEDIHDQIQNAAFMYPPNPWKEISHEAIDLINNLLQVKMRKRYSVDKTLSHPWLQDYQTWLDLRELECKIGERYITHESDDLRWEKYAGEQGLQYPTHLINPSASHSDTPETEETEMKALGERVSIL
HSV replic up = HSV replication enhancement. HSV replication augmentation in cells, fold increase. maximum fold increase. 220,000 tested, 0.005% active. AID 1956;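 active = peak rise of 1.5-fold or more in the series; tested in PC3 cells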;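 also: first round at 10 µM; read as green reporter fluorescence; hits show the peak of a series up to 25 µM; 1 = signal of infected wells without compound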
GALR2 ag = activates the human galanin receptor 2. O43603. GALR2-expressing cells, agonist activation read-out. activation, %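 (tested at 5 µM)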. 140,000 tested, 0.48% active;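 active = above mean plus 3 SD of all compounds, about 5% in these data, not always enough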;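 also: 0% = vehicle buffer wells and 100% = reference agonist at full effect; tested in CHO reporter cells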
RGS16-Gao = RGS16-Galphao interaction regulator (human); bead-based flow cytometry RGS16-Galphao binding, fluorescence; actives lie on both sides; binding response (% of control), % at 10 µM; 220,000 tested, 0.38% active;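 active = below 25% or above 175%, edge rows of some plates excepted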;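 also: Galphao activated by GDP with aluminum fluoride before binding; 100% = wells without compound and 0% = beads without RGS; some results beyond the cut were filed as inactive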
Insulin prom inh cell count = second read-out of Insulin prom inh, no call of its own (marks repeat the call); normalized cell count, %; measured here: cell count, toxicity; reference of the scale not given here;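 cells exposed to compound for 48 h; stained nuclei by imaging scaled within each plate; lower means fewer cells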
HSV replic up primary fold = also measured in HSV replic up; calls as there; fold increase; compound at 10 µM; measured here: primary screen fold increase 10 uM; tested in PC3 cells;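 GFP signal in the first replicate; 1 = infected wells without compound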
* hit, by the source's call; i = inactive; . = no result given.

molecule	Insulin prom inh cell count	PKD1 inh	HSV replic up primary fold	RGS16-Gao	Insulin prom inh	HSV replic up	GALR2 ag
Cc1cc(C)n2ncc(C(=O)NCc3cccnc3)c2n1	88	-6	0.97	101	36	i	-1.0
COc1ccc(C(=O)C2CCCN(C(=O)C3=CCCC3)C2)c(C)c1 (stereo not given)	.	-1	1.1	105	.	i	.
COc1cc(C(=O)Nc2ccc3c(c2)C(=O)N(CCC(=O)O)C3=O)cc(OC)c1OC	78	-5	0.86	103	7	i	-3.6
Cc1ccccc1C(=O)c1c[nH]c(C(=O)NCCc2ccccn2)c1	.	-2	0.96	101	.	i	.
Cc1nn(C)cc1/C=N/NC(=O)c1ccco1	.	.	0.99	98	.	i	.
O=C(O)c1cc(NCc2ccccc2)ccc1N1CCOCC1	161	-3	0.88	100	-236	i	-2.6
CN(C1CCS(=O)(=O)C1)S(=O)(=O)c1ccccc1 (stereo not given)	138	1	0.99	120	-71	i	.
C1CCN=C(NC23CC4CC(CC(C4)C2)C3)CC1	125	-11	0.92	102	-14	i	-2.4
Cc1ccc(/C=N/NC(=O)c2c[nH]c3ccccc23)s1	.	1	0.82	100	.	i	-1.5
Cc1ccc(CNCC(=O)Nc2ccc(C)cc2Br)cc1	.	-4	1	93	.	i	.
CC(=O)c1ccc(NC(=S)N(C)C2CCN(C)CC2)cc1	153	-2	0.97	112	39	i	0.5
COC(=O)c1ccc(N2C(=O)CC(N3CCOCC3)C2=O)cc1 (stereo not given)	.	0	1	116	.	i	-2.1
Cc1ccccc1NC(=O)Cn1cccc1	.	0	0.97	100	.	i	-2.2
Cc1ccnc(NC(=O)c2ccc(Cl)cc2Cl)n1	.	-1	1.1	100	.	i	.
COc1cccc(-n2c(=O)c3c(C)c(C(=O)N(C)C)sc3n(CC(=O)NCC3CCCO3)c2=O)c1 (stereo not given)	72	-5	1.1	99	57	i	.
O=C(N/N=C/c1ccc(F)cc1)c1cc(-c2ccc3c(c2)OCO3)n[nH]1	.	.	0.91	105	.	i	.
COc1cccc(C(=O)C2CCCN(C(=O)CCC3=NNC(=O)CC3)C2)c1 (stereo not given)	103	1	0.96	103	25	i	.
O=c1cc(N=Nc2ccc(Cl)cc2)[nH]c(=O)[nH]1	.	.	0.49	102	.	i	.
Cc1ccc(S(=O)(=O)N2CCC(C(=O)N/N=C/c3cccnc3)CC2)cc1	107	22	0.97	107	20	i	-1.1
O=C(CN(Cc1ccccc1)S(=O)(=O)c1ccc(F)cc1)NCCC1=CCCCC1	136	-2	1.1	98	-19	i	-1.0
CN(Cc1ccccc1)C(=O)COc1cc(=O)n(C)c2ccccc12	80	4	1	50	11	i	-0.7
COC(=O)C1=C(N)Oc2c(oc(CO)cc2=O)C1c1c(F)cccc1Cl (stereo not given)	75	-4	1.1	102	-36	i	.
C/C(=N/NC(=O)CNC(=O)Cc1ccccc1)c1ccc(Cl)cc1	.	.	1.1	98	.	i	.
CC(C)CCNC(=O)CCCCn1c(=O)[nH]c2ccsc2c1=O	.	-6	0.98	101	.	i	.

Single records (already shown).
COC(=O)C1=C(N)Oc2c(oc(CO)cc2=O)C1c1c(F)cccc1Cl (stereo not given) is listed as Insulin prom inh cell count: 75; PKD1 inh: -4; HSV replic up primary fold: 1.1; RGS16-Gao: 102; Insulin prom inh: -36; HSV replic up: i; GALR2 ag: .
O=C(N/N=C/c1ccc(F)cc1)c1cc(-c2ccc3c(c2)OCO3)n[nH]1 is listed as Insulin prom inh cell count: .; PKD1 inh: .; HSV replic up primary fold: 0.91; RGS16-Gao: 105; Insulin prom inh: .; HSV replic up: i; GALR2 ag: .

(more compounds)
molecule	Insulin prom inh cell count	PKD1 inh	HSV replic up primary fold	RGS16-Gao	Insulin prom inh	HSV replic up	GALR2 ag
COc1cc(C(=O)NCCN2CCCC2)cc(OC)c1OC	102	1	0.83	91	33	i	-1.6
CC1(CC(=O)N/N=C/c2cc3c(cc2Br)OCO3)OCCO1	175	-2	0.9	110	44	i	.
COc1ccccc1NC(=S)NNC(=O)c1ccccc1	111	1	0.99	.	-24	i	-1.1
O=C1CC(Sc2ncccn2)C(=O)N1c1ccccc1 (stereo not given)	139	-4	0.96	96	29	i	-1.7
CCCCCCn1cnc2c(oc3nc4c(cc32)CCCC4)c1=O	81	0	1	101	23	i	-1.6
CCCCOC(=O)C1[C@H]2C(=O)N(c3ccccc3CC)C[C@]23C=C[C@H]1O3 (stereo not given in full)	.	6	0.97	95	.	i	-0.9
Nc1ccc(-c2nc3ccc(N)cc3o2)cc1	.	-6	0.91	40	.	i	-4.2
O=C(NC(NCCCN1CCOCC1)(C(F)(F)F)C(F)(F)F)C1CCCCC1	131	1	1	103	50	i	-1.3
COc1ccc(COc2ccccc2C(=O)Nc2ccccn2)cc1[N+](=O)[O-]	153	-11	1	94	-35	i	1.4
CCn1c(=O)cc(C(=O)OC)sc1=Nc1ccc(F)c(F)c1	.	-3	0.56	101	.	i	-1.3
Cn1c(C(=O)NCCN2CCc3ccccc3C2)cc2c(=O)[nH]c3ccccc3c21	.	8	0.93	72	.	i	-0.9
COc1ccccc1Nc1nc(N)nc(CSC(=S)N2CCCCC2C)n1 (stereo not given)	90	-2	1.1	113	26	i	-0.8
CCCS(=O)(=O)c1nc(S(=O)(=O)c2ccc(C)cc2)c(NCc2ccccn2)s1	71	-3	0.92	104	-27	i	.
Cc1[nH]nc(SCC(=O)N2CCCCCC2)c1[N+](=O)[O-]	.	-1	0.99	102	.	i	.
Cc1nc(SCc2ccccc2F)c2oc3ccccc3c2n1	.	.	1.1	105	.	i	.
CN(Cc1c(F)cccc1Cl)c1nnnn1-c1ccccc1	.	9	0.84	109	.	i	0.5
CCc1nc(N)c(C#N)c(-c2ccco2)c1C	132	2	0.91	89	-71	i	-2.0
Cn1c(C(=O)NCCN2CCOCC2)cc2c(=O)n(C)c3ccccc3c21	.	-7	0.95	149	.	i	-1.5
COc1ccc(CCn2c(C)nc3c(c(=O)c4ccccc4n3C)c2=O)cc1	92	-3	0.81	89	3	i	0.2
COc1ccc2cc(C(=O)Nc3ccc(F)cc3)sc(=O)c2c1OC	.	-3	0.78	75	.	i	-0.8
CC1(C)CN2C(=S)N(c3ccccc3)C(c3ccccc3)N2C1 (stereo not given)	89	6	1	40	-3	i	0.0
CCc1cc(=O)oc2cc(OS(C)(=O)=O)ccc12	97	-2	0.99	.	35	i	-3.8
CCOC(=O)c1ccc(-n2c(C)nc3ccc(Br)cc3c2=O)cc1	.	.	0.91	103	.	i	.
COCCCNc1nc2nonc2nc1N1CCN2CCCC2C1 (stereo not given)	.	.	0.8	105	.	i	.
Cc1cccc(N2CCN(S(=O)(=O)c3ccc4c(c3)CCC(=O)N4)CC2C)c1 (stereo not given)	127	-4	1.1	104	-109	i	-2.4
COc1ccccc1-c1noc(CCC(=O)Nc2cc(C(F)(F)F)ccc2Cl)n1	.	-21	0.75	101	.	i	-1.3
COc1ccc(C(=O)NCCSCc2ccccc2)cc1OC	127	-3	0.98	98	-8	i	.
CC1Oc2ccccc2OC1C(=O)Nc1ccccn1 (stereo not given)	58	-12	1	96	-170	i	-1.4
CCOC(=O)c1ccc(-c2cc(C)no2)[nH]1	118	7	0.96	90	-38	i	-1.6
CCOC(=O)n1c(=O)[nH]c2ccc(Br)cc21	107	-1	1.1	96	27	i	.
Cc1cc(NC(=O)CSc2nc3ccsc3c(=O)n2CCCCC(=O)O)no1	127	10	1	99	-29	i	-1.9
COc1ccc(-c2coc3cc(O)cc(O)c3c2=O)cc1OC	.	.	0.9	101	.	i	.
CCOC(=O)Cc1nn[nH]n1	110	-5	1	106	-10	i	.
NC(=O)c1ccc(N=C2C(=O)Nc3ccc([N+](=O)[O-])cc32)cc1	.	7	0.89	101	.	i	.
COc1ccc(Br)cc1[C@H]1[C@H]2C=CC[C@@H](C)[C@@H]2C(=O)N1Cc1ccccc1	.	.	0.72	99	.	i	.
COC(=O)c1ccsc1-n1cc(C#N)c(=O)n(C)c1=O	171	-1	0.94	111	-9	i	.
CCOC(=O)c1c(NC(=S)N2CCOCC2)sc(C)c1C	.	.	0.96	92	.	i	.
Cc1nc([N+](=O)[O-])c(C(=O)OCc2cccc(Br)c2)n1C	74	2	0.98	104	7	i	.
O=C(Cc1cccc2ccccc12)NCC1CCCO1 (stereo not given)	99	4	1.1	99	14	i	-1.9
O=C(NC1CCCCC1)C1CCN(S(=O)(=O)c2cccs2)CC1	64	-14	1	105	-16	i	-0.9
Cc1ccn2c(NC(=O)C(C)(C)Oc3ccc(Cl)cc3)c(-c3cccs3)nc2c1	.	1	1	102	.	i	0.7
CCC1(CC)Nc2ccccc2C(=O)N1c1ccc(OC)cc1	.	.	1.1	97	.	i	.
COc1cccc(C2=NOC(C(=O)Nc3cc(OC)c(OC)c(OC)c3)C2)c1 (stereo not given)	55	4	0.81	100	64	i	-1.0
COc1cccc2[nH]c3c(N4CCC(C)CC4)ncnc3c12	.	7	1.4	100	.	i	-2.2
CCN(C(=O)COc1cc(=O)n(C)c2ccccc12)c1cccc(Cl)c1	111	-6	0.94	95	-27	i	-2.2
N#Cc1c(C#N)c(-c2ccccc2)n(-c2ccc(C(=O)O)cc2)c1N	113	2	0.9	98	59	i	-0.8
COc1ccc2[nH]cc(C=O)c2c1	109	-18	0.9	98	38	i	-0.9
COc1ccc(C(CNC(=O)c2ccccc2SC)N(C)C)cc1 (stereo not given)	.	-6	0.86	104	.	i	.

4 entries already listed, sorted by SMILES length, low to high:
molecule	Insulin prom inh cell count	PKD1 inh	HSV replic up primary fold	RGS16-Gao	Insulin prom inh	HSV replic up	GALR2 ag
CCC1(CC)Nc2ccccc2C(=O)N1c1ccc(OC)cc1	.	.	1.1	97	.	i	.
O=C(NC1CCCCC1)C1CCN(S(=O)(=O)c2cccs2)CC1	64	-14	1	105	-16	i	-0.9
Cc1nc([N+](=O)[O-])c(C(=O)OCc2cccc(Br)c2)n1C	74	2	0.98	104	7	i	.
N#Cc1c(C#N)c(-c2ccccc2)n(-c2ccc(C(=O)O)cc2)c1N	113	2	0.9	98	59	i	-0.8

The listing continues:
molecule	Insulin prom inh cell count	PKD1 inh	HSV replic up primary fold	RGS16-Gao	Insulin prom inh	HSV replic up	GALR2 ag
COC(=O)c1c(NC(=O)c2ccc(C)o2)sc2c1CCCCC2	76	-11	1	108	42	i	-0.4
Cc1cc(=O)oc(C)c1C(=O)N1CCCc2ccccc21	111	4	1	98	18	i	-0.7
CCOc1ccc(/C=C/C(=O)NCCc2ccc(OC)c(OC)c2)cc1	107	6	0.97	104	-23	i	-0.3
Cc1cccc(NC(=O)/C(C#N)=C\c2cccnc2)c1	108	-2	1.1	103	-11	i	-2.9
Cc1ccc(S(=O)(=O)/C(C#N)=C/c2c(N3CCOCC3)nc3c(C)cccn3c2=O)cc1	.	.	0.92	94	.	i	.
Cc1cc(Cl)ccc1NC(=S)NCC(C)C	99	5	1.1	77	-30	i	-0.1
COCCCNC(=O)CC(NS(=O)(=O)c1ccc(C)cc1)c1ccco1 (stereo not given)	83	-13	0.92	102	-27	i	-0.4
CC1CCC(NC(=O)c2cc3c(=O)n(C)c4ccccc4c3n2C)CC1 (stereo not given)	.	-8	0.86	100	.	i	-3.7
Cc1ccc(S(=O)(=O)N(C)C)cc1NC(=O)c1cc(C(C)(C)C)nn1Cc1ccccc1	.	.	0.98	101	.	i	.
Cc1ccnc(NS(=O)(=O)c2ccc(NC(=O)c3ccc(N4C(=O)CCC4=O)cc3)cc2)n1	134	6	0.93	97	-8	i	-1.0
COc1ccc(C(C)=O)cc1CSc1nnnn1-c1ccc(O)cc1	.	.	1.2	98	.	i	.
Cc1nc2ncnn2c(C)c1CCC(=O)NCc1ccc2c(c1)OCO2	.	16	0.96	100	.	i	0.7
COc1ccccc1NC(=O)NCc1ccc2c(c1)OCO2	135	4	1	98	25	i	-1.7
O=C(/C=C\Nc1ccc(Cl)cn1)c1ccc(Br)cc1	89	2	0.85	100	35	i	.
CCn1c(SCC(=O)NC(C)C)nnc1-c1cccs1	80	-5	0.84	101	-38	i	-1.3
NC(=O)C1(S(=O)(=O)c2ccccc2)CCCCC1	.	-7	0.89	102	.	i	-2.6
COc1ccccc1/C=C/C=N/n1c(-c2ccc(F)cc2)n[nH]c1=S	.	.	0.88	95	.	i	.
CCN(CC(=O)NC(=O)NCc1ccccc1)Cc1nc2ccccc2c(=O)[nH]1	69	6	0.99	101	-8	i	.
Cc1ccc(-n2cc(CN3CCN(Cc4nccn4C)CC3)c(-c3cccc(C)c3)n2)cc1	.	-3	0.76	104	.	i	.

Source: PubChem (several laboratories)
